Screening results from PubChem.
Mtb growth – M. tuberculosis H37Rv growth inhibitors, H37Rv strain (AID 1626); 0.95% of 220,000 active; inhibition, % at 10 µM, or IC50 in µM where a hit was titrated; M. tuberculosis H37Rv growth inhibition; higher % means a stronger effect;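 active means confirmed in a dose series; inconclusive means inhibition above 80% but not taken into the dose series; inactive means below 80% or under 30% at every dose of the series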;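 further: bacteria incubated seven days before Alamar blue readout; 0% = bacteria only wells and 100% = bacteria with antibiotic wells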
RecA intein inh – blocks M. tuberculosis RecA intein splicing | 0.75% of 290,000 active | inhibition, %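 (about 9 µM by stock and volumes)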 | cell-free RecA intein splicing, fluorescence | P9WHJ3 | AID 2221; in the data active means inhibition above about 30%; inconclusive means no clear call, values can overlap the other calls;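 further: 0% = vehicle wells and 100% = reference inhibitor control wells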
Target sequence (P9WHJ3 whole entry, looked up): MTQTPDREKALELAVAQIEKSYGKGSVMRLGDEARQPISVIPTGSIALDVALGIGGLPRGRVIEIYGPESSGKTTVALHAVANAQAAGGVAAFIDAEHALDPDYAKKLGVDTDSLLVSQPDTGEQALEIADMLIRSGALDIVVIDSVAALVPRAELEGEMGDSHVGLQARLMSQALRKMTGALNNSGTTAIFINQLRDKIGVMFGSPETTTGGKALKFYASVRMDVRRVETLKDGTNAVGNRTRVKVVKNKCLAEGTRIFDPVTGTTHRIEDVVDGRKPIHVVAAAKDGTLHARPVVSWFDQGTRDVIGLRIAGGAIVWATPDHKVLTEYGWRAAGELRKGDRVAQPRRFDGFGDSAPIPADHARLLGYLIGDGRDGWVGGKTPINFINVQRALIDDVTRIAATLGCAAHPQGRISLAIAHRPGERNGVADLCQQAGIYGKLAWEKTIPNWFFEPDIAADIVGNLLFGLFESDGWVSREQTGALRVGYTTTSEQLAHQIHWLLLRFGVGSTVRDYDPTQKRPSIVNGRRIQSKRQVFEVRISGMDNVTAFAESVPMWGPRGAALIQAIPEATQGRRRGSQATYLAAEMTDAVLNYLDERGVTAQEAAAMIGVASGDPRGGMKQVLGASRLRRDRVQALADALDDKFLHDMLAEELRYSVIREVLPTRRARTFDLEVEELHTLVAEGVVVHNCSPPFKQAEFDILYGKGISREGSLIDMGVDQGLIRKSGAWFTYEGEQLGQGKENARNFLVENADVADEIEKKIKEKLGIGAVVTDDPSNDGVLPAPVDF
Mtb betalactam – beta-lactam sensitization of Mtb H37Rv; M. tuberculosis H37Rv growth with meropenem, percent inhibition; hits of this screen are not shown here; inhibition, % at 25 µM; 0.27% of 330,000 active; AID 434955;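 active means about 74% or more and at least 40 points above the plate without the antibiotic, then above 30% in a dose series; inconclusive means first-round hits that could not be retested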;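 further: growth measured after seven days incubation then overnight dye step; 0% = bacteria only wells and 100% = bacteria with antibiotic; twin plates without the antibiotic show which effects depend on it; some results filed as inactive read as strong as hits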
YopH inh – blocks Yersinia enterocolitica YopH tyrosine phosphatase; fluorescence Ex485/Em525; inhibition, %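 (about 10 µM by stock and volumes)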; 0.16% of 140,000 active;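 active means inhibition of 50% or more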;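 further: controls were vehicle for no effect and minimum signal wells for full effect; inactives centre near -20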
Arbovirus anti – arbovirus infection inhibition; arbovirus infection cell-based antiviral screen; 0.37% of 200,000 active; inhibition, % at 10 µM; AID 1251;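 active means inhibition from about 30%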;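 further: bluetongue infection of BSR cells; cell survival read as ATP light after 72 h; 0% = infected wells without compound and 100% = uninfected wells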
Arbovirus anti repeat – also measured in Arbovirus anti; calls as there; inhibition, %; measured here: 10K subset replicate screen; many hits read low in the repeat;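 first of two repeat runs on a subset; 0% = infected and 100% = uninfected wells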
Active calls of the source: *; ? = inconclusive; nt = no result given.

SMILES	Mtb growth	RecA intein inh	Mtb betalactam	YopH inh	Arbovirus anti	others
Cc1ccc(S(=O)(=O)NC(N)=NCCc2ccccc2)cc1C	-1%	-0.7	-2	-22	-1
COc1ccc(Cl)cc1NC(=O)c1nnn(CC(=O)Nc2ccc(OC)c(OC)c2)c1N	nt	-1.4	0	nt	nt
O=C1CC(N(Cc2ccco2)C(=O)Nc2ccc(F)cc2)C(=O)N1c1ccc(F)cc1 (centres undefined)	-1%	-1.8	-9	-163	-8
CC(CN1CCCCC1)OC(=O)c1cccc(F)c1 (centres undefined)	nt	-1.7	2	nt	nt
O=S(=O)(Nc1ncccn1)c1ccc(NC(=S)N2CCN(Cc3ccc(F)cc3Cl)CC2)cc1	nt	-3.5	-4	nt	nt
CC1=C(C(=O)Nc2ccccc2C)C(c2cccnc2)n2nc(CCCO)nc2N1 (centres undefined)	-3%	0.3	3	-15	2
CC(C)C(C)NC(=O)COC(=O)C1CCN(S(=O)(=O)c2ccc3c(c2)OCCO3)CC1 (centres undefined)	nt	-4.0	0	nt	nt
Cc1ccc(NC(=S)NC(NC(=O)N(C)C)C(Cl)(Cl)Cl)cc1 (centres undefined)	2%	-7.6	?	-2	-2
O=C(CN1CCN(Cc2ccc(F)cc2Cl)C1=O)NCCCN1CCOCC1	5%	-3.8	1	8	4	Arbovirus anti repeat=15
CC(Cn1cncn1)NC(=O)c1cc(COc2cccc(C(F)(F)F)c2)on1 (centres undefined)	nt	0.6	-15	nt	nt
CCc1noc(C)c1C(=O)Nc1cc(S(=O)(=O)N2CCOCC2)ccc1OCC(F)(F)F	nt	-3.3	-8	nt	nt
COCc1nnc(NC(=O)c2cc(C(=O)OC)cc([N+](=O)[O-])c2)s1	-4%	2.4	-4	-27	9
Cc1cc(N/N=C/c2ccccc2F)c2ccccc2n1	9%	1.1	2	nt	-6
CCOc1ccc(C(=O)Nc2cccc(-c3ccc4nncn4n3)c2)cc1	-8%	-1.4	-2	nt	2
Cc1ccc(C(=O)Nc2nccs2)s1	nt	0.1	-7	nt	nt
COC(=O)c1cccc(NC(=O)CCSc2ccc(Cl)cc2)c1C	1%	-2.8	-10	5	-6
COCCn1c(SC(C(=O)Nc2cc(C)ccc2OC)c2ccccc2)nnc1-c1ccc(Cl)cc1 (centres undefined)	13%	10	?	-19	-16
COc1cccc(C2CC(C(F)(F)F)n3ncc(C(=O)Nc4c(C)n(C)n(-c5ccccc5)c4=O)c3N2)c1 (centres undefined)	5%	2.3	16	-27	-5
COC(=O)C(NC(=O)CCC(=O)N[C@@H](C(=O)OC)c1ccccc1)c1ccccc1 (some centres undefined)	nt	1.3	-11	nt	nt
CCn1c(=O)n(CC)c2cc(N3CCCC3)c(NC(=O)c3cc(Cl)ccc3OC)cc21	nt	18	1	nt	nt

2 successive records already listed:
SMILES	Mtb growth	RecA intein inh	Mtb betalactam	YopH inh	Arbovirus anti	others
COC(=O)C(NC(=O)CCC(=O)N[C@@H](C(=O)OC)c1ccccc1)c1ccccc1 (some centres undefined)	nt	1.3	-11	nt	nt
CCn1c(=O)n(CC)c2cc(N3CCCC3)c(NC(=O)c3cc(Cl)ccc3OC)cc21	nt	18	1	nt	nt

Additional results
SMILES	Mtb growth	RecA intein inh	Mtb betalactam	YopH inh	Arbovirus anti	others
CC1CC(NC(=O)Cc2ccc(Br)cc2)CC(C)(C)C1 (centres undefined)	-1%	2.2	85	-37	-1
CCN(CC)c1ccc(NC(=O)Cn2nnc(-c3cccc(OC)c3OC)n2)c(C)c1	-2%	-2.5	-3	3	5
COc1cc(NC(=O)CSc2nc(=O)n(CCCN3CCOCC3)c3c2CCC3)cc(OC)c1	nt	-15	-14	nt	nt
CNC(=O)c1ccccc1NC(=O)c1ccc(C)c(S(=O)(=O)N2CCCCC2)c1	-1%	-1.5	3	-11	2
Cc1cccc(NC(=O)CNC(=O)c2ccc3c(c2)OCO3)n1	nt	-0.7	4	nt	nt
COc1cc(N(C)C)c([N+](=O)[O-])cc1C(=O)NC(C)CNc1ccc([N+](=O)[O-])cc1Cl (centres undefined)	0%	-2.4	-2	-23	-17
Cn1c(C(=O)NCCN2CCN(Cc3ccccc3)CC2)cc2c(=O)n(C)c3ccccc3c21	7%	-1.9	-3	nt	-8	Arbovirus anti repeat=2
O=C(COC(=O)C1CCN(S(=O)(=O)c2ccc3c(c2)OCCO3)CC1)NC1CCCCC1	nt	0.9	0	nt	nt
CC(C)CNC1=CC(=O)CC(c2ccco2)C1 (centres undefined)	-1%	-4.1	1	-43	-8	Arbovirus anti repeat=-2
CCN(Cc1nc2ccccc2c(=O)[nH]1)Cc1cc(=O)oc2cc(OC)ccc12	-3%	nt	-13	-3	11
O=[N+]([O-])c1ccc(C2[C@H]3C(c4ccccc4)=NC4(CCCC4)N23)cc1 (some centres undefined)	-13%	-1.3	-6	-22	-1
C#CCOCCOCCOCCNc1nc(N2CCN(C(=O)CCCCCCCCCCNC(=O)[C@H](CCCCN)n3cc(CCCC(=O)O)nn3)CC2)nc(N2CCN(C(=O)CCCCCCCCCCNC(=O)[C@H](CCCN=C(N)N)n3cc(C[C@@H](C)CC)nn3)CC2)n1	nt	-4.6	99	nt	nt
Cc1nc2scc(-c3ccc(Cl)cc3)c2c(=O)o1	-3%	-3.3	72	-1	8
C/C(CC(=O)Nc1cccc(F)c1)=N\NC(=O)C(=O)NC1CCCCC1	3%	1.2	0	0	1
CCOCCCNC(=S)N1CCCN(c2nc3cc(C)c(C)cc3cc2C#N)CC1	-4%	-53	63	nt	1
COc1ccc(N2C(=O)C(CC(=O)Nc3ccccc3)N(Cc3ccccn3)C2=S)cc1 (centres undefined)	-3%	2.6	4	nt	-5
Cc1nc(NC(=O)c2csc3ccccc23)sc1C	?	-9.2	9	-40	-5
COc1ccc(-c2nnc(SCc3csc(N)n3)n2C)cc1	-1%	-0.3	-7	-23	1
COc1ccc(NC(=O)N2CCOCC2)cc1	nt	1.3	-4	nt	nt
Cc1nc2c(c(=O)[nH]1)C(c1ccccc1Cl)c1c(c3ccccc3oc1=O)O2 (centres undefined)	-8%	-1.0	3	nt	nt
COc1ccc(NC(=O)CCN2CCN(S(=O)(=O)c3ccc(C(C)C)cc3)CC2)cc1	-8%	0.1	-10	-8	-25
COC(=O)c1ccc(Cn2nnc3ccccc32)cc1	0%	-0.9	-1	nt	nt
COc1cccc(C(=O)N(Cc2nc(-c3cccc(C)c3)no2)C(C)C)c1OC	2%	6.3	-1	-99	-5
COc1cccc(N(CC(=O)N2CCN(C)CC2)S(=O)(=O)c2ccc(C)cc2)c1	-4%	0.9	-10	-39	0
O=C(Cn1c(NCCO)nc2ccccc21)c1ccc(Cl)cc1	-3%	0.8	3	-46	-2
COc1ccc(/C=C2\SC(=O)N(CC(=O)Nc3ccc(O)cc3)C2=O)cc1OC	nt	-3.1	5	nt	nt
CC(C)(C)C(=O)Nc1ccccc1C(=O)Nc1ccccn1	-7%	-1.5	-12	-24	-4
CC(C)OCCCNC(=O)c1cn(C)c2ccc(S(=O)(=O)N(C)C3CCCCC3)cc2c1=O	nt	-4.3	-2	nt	nt
CCn1c(CNc2ccc(Cl)cc2)nnc1SCCN1CCCCC1	-2%	-0.5	-5	-29	-15
O=C(NCCNS(=O)(=O)c1cccc(C(F)(F)F)c1)c1cc(OCC(F)(F)F)ccc1OCC(F)(F)F	1%	nt	-7	-13	2
CCOC(=O)c1oc2cc(O)c(CC)cc2c(=O)c1-c1cscn1	-3%	-0.8	-2	nt	7
CCCN1C(=O)CC(C(=O)OC)=C1C	-7%	1.0	-5	-11	15
CC(=O)N1N=C2C3CCN(CC3)C2C1c1ccccc1 (centres undefined)	-16%	-0.3	0	-32	2
C=CCNC(=O)c1nn2cccnc2c1Cl	2%	-2.1	38	-20	-3
COc1ccc(N(CC(=O)Nc2ccc(F)c(F)c2)S(=O)(=O)c2c(C)n[nH]c2C)cc1	nt	1.2	-2	nt	nt
O=C(NCCCn1ccnc1)c1cc(-c2ccncc2)nc2ccccc12	-6%	-4.0	-7	nt	1
CCOC(=O)N1CCN(Cc2nc(-c3ccccc3)no2)CC1	7%	0.3	0	-19	1
O=C(/C=C/c1cccs1)NC(=S)NNC(=O)Cc1cccs1	5%	-0.7	-4	-1	-34
O=C(NC1CCC(=O)N(CCSc2ccccc2)CC1)OCc1ccccc1 (centres undefined)	nt	2.1	-11	nt	nt
CC1=NN(C(N)=S)C(=O)C1N=Nc1ccccc1 (centres undefined)	7%	2.8	96	nt	-2

5 compounds already listed, sorted by heavy-atom count, high to low:
SMILES	Mtb growth	RecA intein inh	Mtb betalactam	YopH inh	Arbovirus anti	others
O=C(NCCNS(=O)(=O)c1cccc(C(F)(F)F)c1)c1cc(OCC(F)(F)F)ccc1OCC(F)(F)F	1%	nt	-7	-13	2
O=C(NC1CCC(=O)N(CCSc2ccccc2)CC1)OCc1ccccc1 (centres undefined)	nt	2.1	-11	nt	nt
CCOC(=O)c1oc2cc(O)c(CC)cc2c(=O)c1-c1cscn1	-3%	-0.8	-2	nt	7
CC1=NN(C(N)=S)C(=O)C1N=Nc1ccccc1 (centres undefined)	7%	2.8	96	nt	-2
CCCN1C(=O)CC(C(=O)OC)=C1C	-7%	1.0	-5	-11	15

(continued)
SMILES	Mtb growth	RecA intein inh	Mtb betalactam	YopH inh	Arbovirus anti	others
CCCc1[nH]nc2c1C(c1ccsc1)C(C#N)=C(N)O2 (centres undefined)	12%	66*	-2	nt	-5
FC(F)(F)Oc1ccc(C2NCc3ccccc3-n3cccc32)cc1 (centres undefined)	nt	4.2	-4	nt	nt
O=C(Nc1ccccc1)c1cc2n(n1)C(C(F)(F)F)CC(C1CC1)N2 (centres undefined)	5%	-3.3	7	nt	5
CCOc1ccccc1CNC(=O)C1CCN(C(=O)c2sccc2-n2cccc2)CC1	-7%	-1.5	-1	-33	-5
Cc1ccc(S(=O)(=O)N2CC(O)CC2C(=O)OCC(=O)c2ccccc2Cl)cc1C (centres undefined)	-8%	0.2	7	-16	2
CC(Nc1nc(-c2ccc(F)cc2)cs1)c1nc2cc(Cl)c(Cl)cc2n1CCCO (centres undefined)	13%	6.0	58	nt	nt
CCOC(=O)CSc1nc2ccccc2c(=O)n1-c1ccc(C)cn1	nt	-1.5	-8	nt	nt
CCOC(=O)c1ccc(NC(=O)c2ccc(CO)c(C(=O)NC3CCN(C(=O)OCC)CC3)c2)cc1	-6%	1.0	6	4	6
Cc1ccc(CNC(=O)c2cc3c(C)nc4ccccc4c3o2)cc1	13%	3.8	4	0	5
O=C(Nc1nc(-c2ccc(F)cc2)cs1)c1cccnc1	1%	-2.6	-2	nt	-7
Cc1cc(N2CCN(C(c3ccccc3)c3ccc(Cl)cc3)CC2)n2ncnc2n1 (centres undefined)	nt	21	-5	-18	-27	Arbovirus anti repeat=-14
COc1cc2c(cc1OC)CN(Cc1cc(OC)c(O)c(OC)c1)CC2	-8%	-3.0	-7	nt	12
O=C(CSc1nnc(-c2ccc(Br)cc2)o1)N1CCN(C(=O)c2ccco2)CC1	61%	nt	74	-43	1
COC(=O)c1cc2c(N)c(C(=O)c3ccccc3)sc2nc1C(OC)OC	10%	-16	4	nt	nt
COc1ccc(CNC(=O)C2CCN(C(=O)c3csc(Nc4ccc(C)cc4)n3)CC2)cc1	nt	-0.5	5	nt	nt
O=S(=O)(NCCSc1ccccn1)c1ccc(Cl)cc1	20%	0.6	4	-20	6
COc1ccc(NC(=O)C2CCCO2)c(OC)c1 (centres undefined)	nt	0.1	-10	nt	nt
CCCCCCCNC(=O)C1CC(=O)N(C)C(=Nc2ccc(OC)cc2)S1 (centres undefined)	4%	3.1	11	-2	-7
C#CC[N+](CC)(CC)CC#Cc1ccccc1	1%	nt	-13	nt	nt
CCCCN(C)CCNC(=O)c1ccc2c(c1)NC(=O)C(N1CCCCC1)S2 (centres undefined)	-11%	2.2	-7	-31	-1
COc1ccc(CCNC(=O)CN2C(=O)C3(OCCCO3)c3ccccc32)cc1OC	-7%	-1.5	11	6	10
Clc1cccc(N/N=C(\Cc2nc3ccccc3[nH]2)c2ccccc2)c1	?	21	13	-28	-39
CCCCOCC1CN(c2ccccc2)C(=O)CS1 (centres undefined)	-7%	-2.0	-4	-15	5
O=C(COc1ccc2ccccc2c1)NCC(=O)N/N=C/c1ccco1	-6%	0.6	3	0	-1
COc1ccc(Cc2nc3ccc(C(=O)N(C)CC4COCCO4)cc3o2)cc1 (centres undefined)	nt	1.4	0	nt	nt
CC(C)(C)C(=O)NC1=NN(c2c(Cl)cc(Cl)cc2Cl)C(=O)C1	2%	3.6	5	nt	-5
COc1cc(/C=N/Nc2nncc3ccccc23)cc(OC)c1OC	nt	-0.1	0	nt	nt
CCOc1ccccc1N1CCN(S(=O)(=O)c2ccc(Cl)s2)CC1	8%	15	-1	-30	12

Some of the compounds tested; rates above refer to the full screens.
